Env fusion inh = blocks HIV Env-driven cell-cell fusion | HeLa-JRFL Env/CEM21 cell fusion, luciferase | inhibition, % at 12.3 µM | 1.1% of 360,000 active | AID 651610;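 active means mean replicate inhibition score of at least 50 and every replicate individually at or above 50; inconclusive means only one of the two criteria met; inactive means mean below 50 and not all replicates reaching 50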;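 further: 0% = plate neutral controls and 100% = maraviroc near 300 nM; one replicate is shown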
UUG fidelity = alters start codon recognition fidelity in yeast | activity score, % at 18.7 µM | S. cerevisiae UUG-firefly luciferase reporter, luminescence/redox ratio | 0.13% of 350,000 active | AID 602363;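 active means replicate mean at a twofold rise or more, about +100% in these data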;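 further: firefly luciferase made from a UUG start codon reports start codon fidelity; reporter light over untreated wells divided by growth signal over untreated wells; some hits fall short of that in this replicate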
eIF4H inh = inhibitors of RNA binding by human eIF4H; 0.94% of 290,000 active; eIF4H fluorescence polarization binding assay; Q15056; inhibition, % at 35 µM;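 active means 50% or more with normal probe brightness, or confirmed in later tests; inconclusive means above 50% with abnormal brightness, or retests that disagree; inactive means below 50% or failed in later tests; about a fifth of its hits are not listed in these tables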;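 further: calls also rest on retests at 20 µM and on dose response follow-up; 0% = protein and probe with vehicle and 100% = probe without protein; strong numbers were not always called active; many hits fall short of the cut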
MT1-MMP act inh = MT1-MMP (human) activation inhibition; P50281; HT1080 RFP-PRO-GFP cells, GFP/RFP ratio fluorescence, overnight; percent of plate control window, DMSO zero; GFP/RFP ratio change, % at 20 µM; 0.061% of 360,000 active;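 active means GFP/RFP ratio change of at least 30% with cell ATP level not reduced by more than half and red fluorescence within 50% of control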; further: strong numbers were not always called active
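Compound: 20 µM single dose, 1% DMSO / System: HT1080 RFP-PRO-GFP cells / Controls: DMSO and RFP-L50D-GFP cell wells / Read-out basis: GFP/RFP fluorescence ratio / Schedule: overnight compound exposure at 37 °C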
CSC inhib = cancer stem cell inhibition; cancer stem cell-like cells viability, luminescence; inhibition, % at 7.5 µM; 1.1% of 300,000 active;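 active means mean at 75% or more and at least half the replicates too; inconclusive means mean and replicates disagree; tested in HMLE shEcad cells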;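 further: 0% = median of negative and 100% = median of positive control wells; the first replicate is given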
Rce1 inhib = yeast Ras-converting enzyme inhibition. yeast membranes, quenched prenylated peptide cleavage fluorescence. AID 2563. 0.27% of 290,000 active. calls only. Q03530;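 active means fall in fluorescence gain of 50% or more versus controls, with final raw signal at or below 3038400; inconclusive means same 50% fall but final raw signal above 3038400; inactive means fall in fluorescence gain under 50%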;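 further: plate controls were neutral control wells for no effect and wells lacking membranes for full effect; tested at 10 µM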
Target sequence (Q03530 whole entry, looked up): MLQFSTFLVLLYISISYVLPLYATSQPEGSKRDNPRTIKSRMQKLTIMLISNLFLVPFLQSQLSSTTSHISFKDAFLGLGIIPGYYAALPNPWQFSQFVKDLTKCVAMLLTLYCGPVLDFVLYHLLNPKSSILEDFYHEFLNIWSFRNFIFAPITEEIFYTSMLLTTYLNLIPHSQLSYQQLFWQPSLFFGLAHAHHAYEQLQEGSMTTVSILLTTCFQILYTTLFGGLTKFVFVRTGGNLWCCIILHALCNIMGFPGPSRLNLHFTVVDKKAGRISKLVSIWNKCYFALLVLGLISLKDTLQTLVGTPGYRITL
PABP FP inh = PABP-poly(A) binding inhibition. AID 2014. 1% of 290,000 active. inhibition, % at 35 µM. P11940. PABP-poly(A) RNA binding, fluorescence polarization;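 active means 50% or more with normal probe brightness, or confirmed in later tests; inconclusive means above 50% with abnormal brightness, or retests that disagree; inactive means below 50% or failed in later tests; about a fifth of its hits are not listed in these tables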;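 further: calls also rest on retests at 20 µM and on dose response follow-up; controls were probe without protein and protein plus probe with vehicle; some compounds called inactive have numbers as strong as hits; many hits fall short of the cut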
MT1-MMP act inh RFP = further read-out of MT1-MMP act inh, marked with its call; RFP signal change, %; measured here: RFP expression control read;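 0 = vehicle wells; hits needed this value within 50% of zero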
Active calls of the source: *; i = inactive; ? = inconclusive; · = not tested or not shown; & = joins results of further samples; [ ] = remark or other dose. Not all compounds are listed (hit frequency here may not be typical).

Compound,UUG fidelity,MT1-MMP act inh RFP,CSC inhib,eIF4H inh,Env fusion inh,Rce1 inhib,MT1-MMP act inh,PABP FP inh
COCCNC(=O)c1cc(-c2ccccc2)n(Cc2cc(C)no2)n1,-4,-2,-9,·,5,·,0,·
CC1=NN(c2ccccc2)C(=O)/C1=C/c1ccc(Cl)cc1,1,-3,-1,-4,17,i,2,-2
Cc1cccn2c(=O)nc(SCC(=O)c3ccc(Cl)cc3)nc12,-20,-4,-2,·,-24,i,4,·
CCN(CC)CCOC(=O)C(c1ccccc1)C1CCCCC1 (stereo not drawn),-3,0,·,·,-6,·,-3,·
ClCCn1cnc2c(SCc3ccccc3)ncnc21,-8,0,·,·,-38,·,4,·
O=C(c1ccc2c(=O)n3c(nc2c1)CCCCC3)N1CCN(c2ccccc2F)CC1,-2,-1,31,-2,·,i,0,-7
N#C/C(=C/c1ccc(-c2ccc(C(=O)O)c(Cl)c2)o1)C(=O)NCC1CCCO1 (stereo not drawn),·,-2,-9,32,2,·,-5,5
CCCN(CC(=O)Nc1ccccc1C)C(=O)c1cccc(-n2cnnn2)c1,-5,6,-12,-5,·,i,-1,0
O=C(CN1C(=O)/C(=C\c2ccccc2Cl)Sc2ccccc21)NCCCN1CCOCC1,-6,0,1,-4,8,i,-2,3
O=C(NCc1ccccn1)C1CCN(S(=O)(=O)c2cccs2)CC1,·,-3,-10,-8,·,i,7,-10
CCN(c1cccc(C)c1)S(=O)(=O)c1cc2c3c(c1)CCC(=O)N3CCC2,-5,-2,·,·,9,i,-6,·
Cc1cc(Cl)ccc1OCCCC(N)=O,-21,-3,-11,2,i,·,2,10
Cc1ccc(NC(=O)CCC(=O)NNC(=O)c2ccccc2Cl)c(C)c1,·,4,-5,-7,-4,i,1,-11
Cc1nc2ccccc2c2oc(C(=O)NCc3ccc4c(c3)OCO4)cc12,-25,-23,-4,12,88*,i,0,1
Cc1ccc(C2CC(=O)N3CN(Cc4ccco4)CSC3=C2C#N)cc1 (stereo not drawn),-19,4,-4,-2,16,i,-2,16
COc1ccc(CC(=O)OC(C)CN2CCOCC2)cc1 (stereo not drawn),·,-3,-13,-9,0,i,-2,-4
COc1ccc(C2/C(=C(/O)c3ccccc3)C(=O)C(=O)N2c2ccccn2)c(OC)c1 (stereo not drawn),-8,4,3,0,-39,i,9,8
COc1ccccc1N1CC(C(=O)Nc2nnc(SC)s2)CC1=O (stereo not drawn),-21,3,-11,-3,2,i,0,-2
O=C(c1ccco1)N1CCN(c2ncnc3c2[nH]c2ccc(Cl)cc23)CC1,·,·,3,3,·,i,·,-2
Cc1c(N2C(=O)/C(=C\C3CC=CCC3)SC2=S)c(=O)n(-c2ccccc2)n1C (stereo not drawn),4,15,-4,-5,21,i,11,-15
COCCNC(=O)c1cc2c(-c3ccccc3F)nn(C)c2s1,-25,3,-2,4,12,i,11,?
CCOC(=O)C(=O)NNc1ccc(Cl)cc1,·,5,82*,-6,9,i,-1,6
Cc1cc(OC(C)C(=O)Nc2ccccc2C(=O)N2CCCC2)ccc1Cl (stereo not drawn),7,-2,-8,-2,-2,i,-8,-4
COc1cccc(NC(=O)[C@H](CC(C)C)NC(=O)N2CCn3c2nc2ccccc23)c1,-11,1,-22,-4,0,i,9,-5
COc1ccccc1C(=O)n1nc(-c2ccc(Cl)cc2)nc1N,-14,-1,-1,8,·,i,2,2
Cc1ccccc1CCNC(=O)Cn1ccc2cc(S(=O)(=O)N3CCCC3)ccc21,0,-3,-6,-7,7,i,0,0
CC[C@H](C)[C@H](NC(=O)c1ccc(Cl)cc1)C(=O)OCC(=O)c1c(N)n(C)c(=O)n(C)c1=O,4,-6,-12,·,19,·,5,·
CC(=O)n1cc([C@@H]2C=C(C(=O)NCc3ccccc3)O[C@H](OCc3ccc(CO)cc3)C2)c2ccccc21,-11&-1,-1,16,-9,-1[16.7 µM],i,-2,-2
CC(On1c(-c2ccccc2)nc2ccc(Cl)cc21)C(=O)O (stereo not drawn),·,3,8,0,4,i,5,23
Cc1cccc(OCCCC(=O)N2CCCCCC2)c1C,4,-4,-9,-11,5,i,1,-10
N#CC1(c2ccccc2)CCCN1C(=O)c1ccccc1Cl (stereo not drawn),-8,1,-16,-8,·,i,5,-3
O=C(Nc1cccc(-c2nc3ccccc3[nH]2)c1)c1ccccn1,-26,-4,3,6,-10,i,0,16
Cc1ccc(S(=O)(=O)NCc2cn3ccsc3n2)c(C)c1,·,2,17,1,·,i,1,4
CCC(C)NCCCCOc1ccc(C)cc1[N+](=O)[O-] (stereo not drawn),6,5,-3,-8,·,i,11,-4
CC(NC(=O)COC(=O)c1ccccc1Nc1ccccc1)c1ccccc1 (stereo not drawn),-17,-9,5,-10,·,i,-6,-3
CC(Oc1ccccc1Cl)C(=O)Nc1ccc(S(=O)(=O)Nc2nccs2)cc1 (stereo not drawn),-7,-1,-9,·,·,i,-2,·
Cc1cccc(C(C)C)c1NC(=O)COC(=O)Cc1ccsc1,1,5,-13,-1,-8,i,-2,1
CNC(=O)NC(=O)CSc1ccc(S(=O)(=O)N2CCOCC2)cn1,-11,5,-2,·,-5,·,-2,·
COc1ccc(-c2cc(C(=O)NC(Cc3cc4ccccc4[nH]3)C(=O)O)c(C)o2)cc1OC (stereo not drawn),·,5,-2,-15,-8,i,0,-18
COc1cccc(NS(=O)(=O)c2cc3c(cc2C)N(C)CCO3)c1,-2,-6,·,-8,-30,i,0,9
Cc1ccc(S(=O)(=O)N2CCC(C(=O)NCCc3ccccc3)CC2)cc1,5,0,2,-1,-29,i,-4,-4
COc1ccc(-c2ccc(CN3C(C)C(=O)N(Cc4cn(CCC5OCCO5)nn4)CCS3(=O)=O)cc2)cc1 (stereo not drawn),-17,-12,·,·,-16,·,-13,·
CC(=O)Nc1nonc1NC(=O)CSc1ncn[nH]1,-5,5,-8,5,-68,i,2,-2
COC(=O)c1ccc(CSc2nnc(SCc3ccc(C(=O)OC)o3)s2)o1,-22,3,0,-9,·,i,0,-2
CC(NC(=O)Cn1cc([N+](=O)[O-])cn1)c1ccc(C(C)(C)C)cc1 (stereo not drawn),·,-2,8,·,15,i,6,·
CC(C)CCNC(=O)C(c1ccco1)N(CCCO)C(=O)Cn1nnc(-c2ccc(F)cc2)n1 (stereo not drawn),·,0,-8,1,8,i,-5,7
COc1ccc(NC(=O)COc2cccc3c2OC(C)(C)C3)cc1OC,17,-29,-2,·,-2,·,-7,·
Cc1ccc(NC(=O)CN(C)C(=O)COC(=O)c2nc3nccc(C)n3n2)cc1,-8,3,-16,·,·,·,1,·
COc1ccc(C2/C(=C(\O)c3ccc4c(c3)OCCO4)C(=O)C(=O)N2CCCN(C)C)c(OC)c1 (stereo not drawn),-7,-1,0,-8,-34,i,-11,0
O=C(CCCCO)CCCCCCCC[C@H]1N[C@H](CO)[C@H](O)[C@@H]1O[C@@H]1O[C@H](CO)[C@@H](O)[C@H](O)[C@H]1O,3,3,-3,-3,5,i,0,2
CCCC(=O)Nc1ccc(NC(=O)c2ccccc2Cl)nc1,-4,10,6,-4,2,i,1,-5
CCc1ccccc1N1CC(C(=O)Nc2nccs2)CC1=O (stereo not drawn),·,3,-3,-11,-9,i,-1,3
Cc1sc2nc(CSc3nnnn3-c3ccc(Cl)cc3)[nH]c(=O)c2c1C,·,0,-1,46,8,i,-16,-1
Cc1ccc(C2NC(=S)NC3=C2C(=O)CCC3)cc1 (stereo not drawn),·,6,-2,0,1,i,3,-7
O=C(COc1ccccc1C(=O)c1cnn(-c2ccccc2)c1)Nc1ccc2ccccc2c1,-24,-3,11,-11,-64,i,-3,-3
Cc1noc(C)c1NC(=O)N(C)C[C@@H]1Oc2cc(Br)ccc2S(=O)(=O)N([C@@H](C)CO)C[C@H]1C,17&-11,6,·,·,-13,·,0,·
Nc1nc(Nc2cccc(Cl)c2)n[nH]1,-6,-1,-9,-5,-12,i,0,-8
COc1ccc(C(=O)NC2CCN(C(=S)Nc3cc(C)ccc3C)CC2)cc1,-24,-2,-8,-6,14,i,6,-1
COc1ccc(NC(=S)N2CCN(Cc3cccc(F)c3)CC2)c(OC)c1,-18,-4,-6,0,21,i,0,7
O=C(CN1CCN(S(=O)(=O)c2ccc(Br)cc2)CC1)N/N=C/c1cc([N+](=O)[O-])ccc1Cl,·,-10,-4,0,·,i,-2,3

The list goes on.
Compound,UUG fidelity,MT1-MMP act inh RFP,CSC inhib,eIF4H inh,Env fusion inh,Rce1 inhib,MT1-MMP act inh,PABP FP inh
CC(C)(C)c1ccc(-n2ncc3c2CCCC3NC(=O)CN2CCOC2=O)cc1 (stereo not drawn),-5,-22,26,-1,-36,i,2,0
Cn1nc(C(=O)N2CCN(S(=O)(=O)c3ccccc3)CC2)c2ccccc2c1=O,-16,-2,8,-5,-221,i,-5,0
Cc1nc(N2CCN(Cc3ccccc3)CC2)[nH]c(=O)c1C,-16,2,5,1,5,i,0,-3
Cc1cc(COc2ccccc2O)on1,11,6,-5,-9,·,i,2,-1
C=CCSc1nnc(NC(=O)CN2C(=O)NC3(CCCC3)C2=O)s1,-13,1,-21,-4,16,i,4,13
Cc1cc(NC(=O)CCSc2nc(-c3ccco3)cc(C(F)(F)F)n2)no1,-6,1,15,-5,·,i,-4,-5
CCN(CC)c1ccc(NC(=O)COC(=O)CSc2ccc(Br)cc2C)cc1,·,6,-21,-5,·,i,8,5
COc1ccc(C(=O)N(CN2CCCC2=O)c2ccccc2OC)cc1OC,-5,5,4,-4,-41,i,2,-12
O=C(O)c1ccc(N2C(=O)CC(SC(=Nc3ccccc3)Nc3ccccc3)C2=O)cc1 (stereo not drawn),·,9,-3,-4,·,i,4,8
Cc1ccc(Oc2nc(-c3cccnc3)nc3ccccc23)c([N+](=O)[O-])n1,-15,-5,2,-5,27,i,-1,7
COc1ccc(C(C#N)N2N=C(C)CC2c2ccccc2)cc1 (stereo not drawn),-13,1,0,5,-2,i,1,4
Cc1[nH]c2ccc(-c3n[nH]c(=S)n3-c3ccccc3)cc2c1C,·,3,35,2,-16,i,8,-2
Cc1ccc(S(=O)(=O)N(C)C)cc1NC(=O)COC(=O)c1ccc2c(c1)NC(=O)CS2,·,-2,-5,-4,-5,i,1,7
C#Cc1ccc([C@@H]2C=C(C(=O)NCc3ccccc3)O[C@H](OCc3ccc(CO)cc3)C2)cc1,-5,-1,6,2,-14,i,-1,-5
COc1ccc(NC(=O)c2cc(OC)c(OC)c(OC)c2)cn1,-7,0,-14,-9,·,i,8,-5
CCOc1ccccc1C(=O)N[C@H](C(=O)OCc1csc(CC(=O)Nc2ccc(C)cc2)n1)C(C)C,2,-20,·,·,-9,·,-2,·
CCOc1c(Br)cc(C2NC(=O)CCC2[N+](=O)[O-])cc1OC (stereo not drawn),11,3,-10,3,16,i,3,5
CC(C)Oc1ccc(/C(O)=C2/C(=O)C(=O)N(CCN3CCNCC3)C2c2cccc([N+](=O)[O-])c2)cc1 (stereo not drawn),-6,3,3,-3,-4,·,-2,4
COc1c(F)c(F)c(C(=O)Nc2ccc(NC(=O)Cc3ccccc3)cc2)c(F)c1F,·,4,-1,2,13,i,6,-5

From PubChem
